# NPYLR7 agonist: mosquito NPYLR7 agonism; activation, % at 10 µM; AID 1259423; HEK293T NPYLR7/Galpha15, GCaMP6s calcium fluorescence; 270,000 compounds, 0.15% hits; in the data active = activation above about 40%;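 note: 0% = vehicle and 100% = reference agonist at the receptor; some compounds past the cut are filed as inactive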
# NPYLR7 agonist max-min: further read-out of NPYLR7 agonist, marked with its call; activation, %; measured here: Max-Min RFU normalised activation; some inactives read as strong as hits;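 span of the calcium signal over five minutes; 0% = vehicle and 100% = native peptide agonist; compound fluorescence can raise it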
# Numbers without * were called inactive. Some of the compounds tested; rates above refer to the full screens.
SMILES,NPYLR7 agonist,NPYLR7 agonist max-min
CC(C)(C)NC(=O)NCC(c1ccsc1)N1CCCC1 (stereo unspecified),5,-6
O=C(CCN1CCCC1=O)NCc1ccc2[nH]c3c(c2c1)CCCC3,17,8
O=C(O)CCN(CCC(=O)O)c1nncs1,2,-3
Cc1ccc(NC(=O)Nc2ccc(N3CCCC3)c(C(=O)NC(C)c3ccccc3)c2)cc1 (stereo unspecified),7,10
O=S(=O)(Nc1nc2ccc(Cl)cc2s1)c1cccs1,1,5
Cc1cc(C(=O)N2CCCC(C(=O)c3ccc(-c4ccccc4)cc3)C2)nn1C (stereo unspecified),-2,-2
CCCCOc1ccc(C(=O)N(CC(=O)N2CC(=O)N(c3cccc(Cl)c3C)C2)C2CCCCC2)cc1,23,19
Cc1ccc(Cn2nc(C)c(/C=C/C(=O)NC3(C#N)CCC3)c2C)cc1,2,11
O=C(C1CCCC1)N1CCCC(Nc2ccc(F)cc2)C1 (stereo unspecified),2,0
CCN(CC)S(=O)(=O)c1ccc2c(c1)nc(SCc1cccc(C#N)c1)n2C(C)C,16,10
COc1ccc(S(=O)(=O)Oc2cccc(CN(Cc3ccc(F)cc3)C(=O)C3CCC3)c2)cc1,23,26
OC(c1ccccc1)=c1ccc2cccc3ncnc1c23,2,5
Cc1ccc(NC(=O)Cn2c3ccccc3c(=O)c3ccccc32)cc1,-2,-6
COC(=O)CCc1c(C)nn(-c2ccc(C(=O)NC(c3ccccc3)c3ccc(Cl)cc3)cc2)c1C (stereo unspecified),-3,-10
CC(c1ccc(-c2ccc3c(c2)OCO3)cc1)N1CCOCC1 (stereo unspecified),27,17

# Ordered by SMILES length (descending): part of the list above
SMILES,NPYLR7 agonist,NPYLR7 agonist max-min
Cc1ccc(NC(=O)Cn2c3ccccc3c(=O)c3ccccc32)cc1,-2,-6
CC(c1ccc(-c2ccc3c(c2)OCO3)cc1)N1CCOCC1 (stereo unspecified),27,17
O=C(C1CCCC1)N1CCCC(Nc2ccc(F)cc2)C1 (stereo unspecified),2,0

# More entries follow:
SMILES,NPYLR7 agonist,NPYLR7 agonist max-min
CCCc1cc(CN(C)C(=O)c2cc(NC(=O)c3ccccc3)cc3ncn(C4CCCC4)c23)[nH]n1,16,4
CCCCS(=O)(=O)N1CCCn2nc(C(=O)N3CCOCC3)cc2C1,6,5
CC(C)c1ccc(C2OCC(CO)([N+](=O)[O-])CO2)cc1 (stereo unspecified),1,4
COc1ncc(CN(C)Cc2cccc3ncccc23)cn1,1,0
Cc1c(C)n2c3c(cccc13)CC2,8,5
N#CC(c1ccccc1)c1ccc(NC(=O)CN2CCCCC2c2cccnc2)cc1Cl (stereo unspecified),-4,-11
COc1ccccc1C(=O)N(Cc1csc(COc2c(OC)cccc2OC)n1)CC(C)C,3,10
C=CCn1c(=NC(=O)c2ccccc2I)sc2cc(S(C)(=O)=O)ccc21,4,1
Cc1cccc(-n2ncc3c(=O)n4c(nc32)SCC4CC(=O)Nc2nc(C)cs2)c1 (stereo unspecified),1,1
Cc1cc(NC(=O)NC(C)c2cccc(C(F)(F)F)c2)no1 (stereo unspecified),3,0
O=S(=O)(c1cccs1)N1CCCC1c1ccc2c(c1)OCCCO2 (stereo unspecified),-1,5
Cn1c(=O)[nH]c(=O)c2c1nc(CN1CCOCC1)n2CCc1ccccc1,24,17
CCSc1nnc2c(n1)OC(c1ccc(O)cc1)Nc1ccccc1-2 (stereo unspecified),-6,-13
CCCC(C)c1nnc(NC(=O)c2cc(OC)nc(OC)n2)s1 (stereo unspecified),5,4
O=C(CSc1nc(=O)n(CCCO)c2c1CCC2)NCc1ccccc1,-3,-6
COc1cccc(C(=O)Nc2c(-c3ccc(C(F)(F)F)cc3)nc3ccccn23)c1,-6,-1
CCCCCNC(=O)N1CCN(S(=O)(=O)c2c(Cl)cc(Br)cc2Cl)CC1,-1,6
COCCN(CC(=O)N(Cc1ccc2c(c1)OCO2)Cc1sccc1C)C(=O)CCc1ccccc1,12,13
CCOC(=O)C1=C(CC)NC2=C(C(=O)CCC2)C1c1ccccc1OCc1ccccc1 (stereo unspecified),-4,-10
Cc1ccc(C(=O)NC2c3ccccc3Oc3ccccc32)cc1,1,1
COc1ccc(CCN(C)C(=O)c2cc(-c3ccccc3)nn2-c2ccc(C)cc2C)cc1OC,2,13
Cc1c(Cl)c([N+](=O)[O-])nn1CC(=O)N(C)Cc1ccccc1,11,12
CC(C)n1nc(C(=O)Nc2ccc3c(c2)OCO3)c2ccccc2c1=O,-22,-25
COc1ccccc1C(=O)NCc1nnc(SCc2cccc(C)c2)n1-c1ccc([N+](=O)[O-])cc1,3,7
NC(=O)C1CCN(C2CC(=O)N(c3cccc(Cl)c3)C2=O)CC1 (stereo unspecified),0,-1
CCC(C(=O)Nc1ccc(N2CCCC2)c(C(=O)NC(C)c2ccccc2)c1)c1ccccc1 (stereo unspecified),4,3
CCN1CCN(C(=O)C(C)n2c(=O)n(-c3ccc(C)c(Cl)c3)c(=O)c3ccccc32)CC1 (stereo unspecified),21,23
CCc1nc2c(OCc3ccccc3C(=O)OC)cccn2c1N(C)C(=O)c1cccc(OC)c1,10,0
Cc1cc(C)c(S(=O)(=O)NCc2nnc(SCc3ccccc3)n2-c2ccc(Cl)cc2Cl)c(C)c1,13,18
COc1cccc(CN(C)Cc2ccc(Br)s2)n1,3,0
O=c1[nH]c(N2CCN(c3ccccc3F)CC2)nc2c(-c3ccccc3F)csc12,4,3
Cc1ccc(CSC2=NCCN2S(C)(=O)=O)cc1,2,6
CN(Cc1ccc(Cl)s1)C(=O)NCCc1ccccc1,-2,-4
Cc1csc(-c2nccn2-c2ccc(-c3n[nH]c(C)n3)cc2)n1,2,0
CN(C(=O)C1CC1)c1ccccc1C(=O)Nc1ccc2c(c1)OCCCO2,0,0
CN1C(=O)NC(c2ccccc2C(F)(F)F)C2=C1CN(CC(=O)NCCc1ccc(Cl)cc1Cl)C2=O (stereo unspecified),14,28
COc1cccc(COC(=O)C23CC4CC(CC(NC(C)=O)(C4)C2)C3)c1,-3,-4
COC(=O)CCn1c(=O)c2c(nc3n(-c4ccc(OC)cc4)c(C)cn23)n(C)c1=O,-3,-2
COc1ccccc1NC(=O)N(Cc1cccc(Cl)c1)CC1CC(c2ccc(N(C)C)cc2)=NO1 (stereo unspecified),20,15
O=C(NCc1ccccc1)Nc1ccc(N2CCC(Cc3ccccc3)CC2)c(C(=O)N2CCCC2)c1,-5,0
CC(C)(C)c1cc(N2CCN(Cc3ccc4c(c3)OCO4)CC2)nc(SCc2ccc(C(=O)NCc3ccco3)cc2)n1,-4,-13
Cn1cc(C2CCN(C(=O)c3sc(Cl)c(Cl)c3Cl)CC2)c2ccccc21,28,15
COCCN(Cc1cccc(OS(=O)(=O)C(C)C)c1)C(=O)c1ccco1,-1,12
CN(C(=O)c1ccc(NC(=O)CC2SC(N3CCCC3)=NC2=O)cc1)C1CCc2ccccc21 (stereo unspecified),1,1
CN(Cc1ccc(C(=O)Nc2nccn2C)cc1)Cc1cnc2ccccc2n1,5,0
CCOC(=O)c1c(-c2ccc(C)cc2)csc1NC(=O)c1ccco1,-3,-10
Cc1cccc(C)c1Nc1ncnc2c1nnn2C,11,5
O=C(CN1CCc2ccccc2C1)N1N=C(c2ccccc2F)CC1c1ccc2c(c1)OCO2 (stereo unspecified),0,8
Cc1cccc(CN2CCCC3(CCN(C(=O)CCN4CCCO4)C3)C2)c1 (stereo unspecified),4,-1
CC1(C)[C@H]2CC=C(CCNCc3nc(-c4ccco4)no3)[C@@H]1C2,-7,-16
COc1cc(CN(C)C(=O)NCC(c2ccco2)N2CCCC2)ccc1O (stereo unspecified),5,2
Cc1nn(C)c(C)c1CCC(=O)N1CCN(C(=O)C2CCCO2)CC1 (stereo unspecified),-1,-8
Cc1sc2nc(CSc3nnc(NC4CC4)s3)[nH]c(=O)c2c1C,12,17
CCOC(=O)c1nn(-c2ccc(C)cc2)c(=O)c2c(NC(=O)Cc3ccc(F)cc3)scc12,6,2
Cc1ccccc1CN(Cc1ccncc1)CC(C)C,24,9
Cc1ccccc1C(=O)N[C@@H]1CCCCC1NC(=O)C1CCN(C(=O)Cc2cccs2)CC1 (stereo partly specified),3,18
CCN(CC)c1onc(-c2ccccc2)c1CN(C(C)=O)C(C)C,-10,-5
CN(CCC1CCOCC1)C(=O)C1CCC(=O)N(CCc2cccc(F)c2)C1 (stereo unspecified),1,0
O=C1CCCN1CC(NCc1cccc(Cl)c1Cl)c1ccccc1 (stereo unspecified),2,1
COc1ccc(NC(=O)C(C2CCCC2)N2CCN(C(=O)NC(C)(C)C)CC2)cc1 (stereo unspecified),-7,10
# Further structures follow:
SMILES,NPYLR7 agonist,NPYLR7 agonist max-min
CC(CC(=O)NC1CCCCC1)S(=O)O (stereo unspecified),-2,-3
COCCN(Cc1cccc(OS(=O)(=O)c2cccc(C(F)(F)F)c2)c1)C(=O)c1cc(C(F)(F)F)cc(C(F)(F)F)c1,-3,5
Cc1oc(-c2ccccc2)nc1CC(=O)N1CCC2(CN(C)C(=O)O2)C1 (stereo unspecified),8,5
O=C(NCCc1cccc(Cl)c1)c1ccc(-c2cccc(C(F)(F)F)c2)s1,6,10
OCCNc1nc2ccccc2[nH]1,-9,-17
O=C(c1cccc(Cl)c1)C1CCCN(C(=O)/C=C/c2ccccc2F)C1 (stereo unspecified),16,19
O=C(OCC(=O)N1CCC2(CC1)OCCO2)C1C2CC3CC(C2)CC1C3 (stereo unspecified),8,3
O=C(Nc1ccc(Oc2ccccc2F)cc1)C1CCN(C(=O)c2ccco2)CC1,2,-2
O=C(c1cccc(Cl)c1)C1CCCN(C(=O)c2ccoc2)C1 (stereo unspecified),3,1
CCOC(=O)CC1(NC(=O)CC2C(=O)NCCN2CC(C)C)CCCCC1 (stereo unspecified),11,2
O=C(CC1CSc2nccc(=O)n21)Nc1nccs1 (stereo unspecified),-4,-4
c1ccc2c(c1)c(N1CCCCC1)nn1cnnc21,8,-1
Cc1nn(C)c(C)c1CC(C)C(=O)N1CCCCC1c1nccs1 (stereo unspecified),-3,-9
Cc1nc2n(n1)C(=O)C(C(c1cccc(Cl)c1)N1CCC(C(N)=O)CC1)S2 (stereo unspecified),0,-4
O=C1C(=Cc2cccs2)CCCC1=Cc1cccs1,7,8
CC(C)CNc1ccc2c(n1)C(=O)N([C@H](C)C(=O)NCCOc1ccccc1)C2,4,0
O=C(N[C@H](Cc1ccccc1)C(=O)N1CCC(C(=O)N2CCOCC2)CC1)C1CCN(c2nccc(C(F)(F)F)n2)CC1,-3,12
CC(=O)Nc1ccc(NC(=O)Cn2nc(C(=O)Nc3ccccc3)ccc2=O)cc1,3,1
Cc1cc(-c2nnc(NC(=O)c3cc(C)n(C)n3)o2)n(C)n1,-3,-3
NCC1CCN(Cc2cc(F)ccc2O)C1 (stereo unspecified),1,-4
Cc1nc2cc(C(F)(F)F)ccc2n1C1CCN(C(=O)c2cccc(Cl)c2)CC1,-7,-10
Cc1cccc(-n2nc3c(c2NC(=O)c2ccc(C(C)(C)C)cc2)CS(=O)C3)c1C (stereo unspecified),4,0
C#CCN(Cc1ccc(C)cc1)C(=O)CC(=O)Nc1ccc(C)cc1,-5,-7
CN(CCNS(C)(=O)=O)C(=O)c1ccc(SC(F)F)cc1,-1,2
CCOCCn1c(CN2CCC(C(N)=O)CC2)nc2c1c(=O)n(C)c(=O)n2C,-2,-4
CCN(Cc1ccccc1Cl)Cn1nc(CCC(N)=O)n(C)c1=S,-1,-2
Cc1nc2n(n1)C(=O)C(C(c1cccc(F)c1)N1CCC(C(N)=O)CC1)S2 (stereo unspecified),-1,-4
Cn1cccc1C1CCCN1C(=O)Nc1cccc(CS(C)(=O)=O)c1 (stereo unspecified),-22,-22
CCOc1ncccc1CNC(=O)Nc1ccc(OC)c(Cl)c1,14,6

# In the list so far, these contain a thiophene ring, fused or not:
SMILES,NPYLR7 agonist,NPYLR7 agonist max-min
CC(C)(C)NC(=O)NCC(c1ccsc1)N1CCCC1 (stereo unspecified),5,-6
O=S(=O)(Nc1nc2ccc(Cl)cc2s1)c1cccs1,1,5
O=S(=O)(c1cccs1)N1CCCC1c1ccc2c(c1)OCCCO2 (stereo unspecified),-1,5
COCCN(CC(=O)N(Cc1ccc2c(c1)OCO2)Cc1sccc1C)C(=O)CCc1ccccc1,12,13
COc1cccc(CN(C)Cc2ccc(Br)s2)n1,3,0
O=c1[nH]c(N2CCN(c3ccccc3F)CC2)nc2c(-c3ccccc3F)csc12,4,3
CN(Cc1ccc(Cl)s1)C(=O)NCCc1ccccc1,-2,-4
Cn1cc(C2CCN(C(=O)c3sc(Cl)c(Cl)c3Cl)CC2)c2ccccc21,28,15
CCOC(=O)c1c(-c2ccc(C)cc2)csc1NC(=O)c1ccco1,-3,-10
Cc1sc2nc(CSc3nnc(NC4CC4)s3)[nH]c(=O)c2c1C,12,17
CCOC(=O)c1nn(-c2ccc(C)cc2)c(=O)c2c(NC(=O)Cc3ccc(F)cc3)scc12,6,2
Cc1ccccc1C(=O)N[C@@H]1CCCCC1NC(=O)C1CCN(C(=O)Cc2cccs2)CC1 (stereo partly specified),3,18
O=C(NCCc1cccc(Cl)c1)c1ccc(-c2cccc(C(F)(F)F)c2)s1,6,10
O=C1C(=Cc2cccs2)CCCC1=Cc1cccs1,7,8
